Screening results: PubChem, National Center for Advancing Translational Sciences (NCATS)
NS1 inh – blocks influenza NS1 protein function; S. cerevisiae slowed by influenza A NS1, growth recovery by OD600; Potency, µM (doses to about 46.1 µM), for the others: top-dose activity, positive = more growth; actives 0.4% (n = 270,000); AID 2326; active means well fitted rising curve with a large enough effect; inconclusive means small, poorly fitted or top-dose-only effect; inactive means no such curve, though single readings can be large or run the other way; note: nearly all actives have a fitted effect of over 50% in size
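Recovery from NS1-induced slow growth read by OD600 in budding yeast switched to galactose assay medium (pH 6.0, -URA) at 1:100 dilution. Compound 23 nl per well; the matching strain lacking NS1 serves as control.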
Cruzain Triton – blocks cruzain activity in presence of Triton detergent; Potency, µM, without a hit: max response, negative = inhibition, usual class: inhibitors; P25779; AID 1478; actives 0.43% (n = 200,000); purified cruzain, Z-FR-AMC fluorescence, 0.01% Triton;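 note: plate controls were neutral wells for no effect and buffer without enzyme for full effect; nearly all actives have a fitted effect of over 40% in size; top concentration of the series not given in the record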
Target sequence (P25779 123-467 limits assumed): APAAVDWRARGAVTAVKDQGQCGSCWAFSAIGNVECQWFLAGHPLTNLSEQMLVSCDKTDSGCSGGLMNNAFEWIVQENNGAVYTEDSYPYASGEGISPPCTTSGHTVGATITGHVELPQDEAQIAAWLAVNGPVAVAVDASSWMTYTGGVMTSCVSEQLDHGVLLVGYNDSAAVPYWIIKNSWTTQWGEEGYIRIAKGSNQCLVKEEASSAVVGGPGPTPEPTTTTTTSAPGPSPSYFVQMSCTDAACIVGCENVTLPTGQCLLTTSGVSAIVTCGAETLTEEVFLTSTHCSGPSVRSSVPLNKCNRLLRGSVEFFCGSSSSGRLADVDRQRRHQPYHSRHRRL
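Z-FR-AMC hydrolysis (2 uM substrate) by cruzain (1.5 nM) monitored kinetically at ex 360/em 450 nm after 15 min room-temperature compound exposure; 0.01% Triton X-100, pH 5.5, 5 mM DTT.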
MARV entry inh – blocks Marburg virus binding to or entry into cells; Marburg virus pseudotyped entry inhibition, cell reporter; control for the full effect not named in the record; about a third of the inactives were read at about 46 µM; Potency, µM (doses to about 37.8 µM), inactives show top-dose activity change, negative = inhibition, hits mostly inhibitors; actives 1.8% (n = 300,000); active = well fitted inhibition curve with a large enough effect; inconclusive = small, poorly fitted or top-dose-only effect, or effect the other way; inactive = flat fitted curve, though single readings scatter; tested in HEK293 cells; about a fifth of its hits are not listed in these tables; note: % is set by controls: 0 for no effect and ±100 for the full control effect; luciferase read-out
StopGo reporter – FMDV 2A StopGo reporter, luciferase signal | human cells with a luciferase reporter of 2A StopGo recoding; control for the full effect not named in the record | AID 1159524 | Potency, µM (titrated, usually from 57.9 µM), for inactives: top-dose signal change, negative = less light | actives 1.2% (n = 410,000); active = well fitted falling curve with a large enough effect; inconclusive = small, poorly fitted or top-dose-only effect; inactive = no such curve, though single readings can be large or run the other way; tested in HEK293T cells; note: % is set by controls: 0 for no effect and ±100 for the full control effect; nearly all actives have a fitted effect of over 45% in size; luciferase light after 4 h
Cruzain inh noDet – blocks cruzain activity in detergent-free assay; purified cruzain, Z-FR-AMC fluorescence, no detergent; Potency, µM, inactives show max response, negative = inhibition, actives largely listed as inhibitors; actives 2.3% (n = 200,000); AID 1476;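 note: plate controls were enzyme without inhibitor for no effect and buffer without enzyme for full effect; nearly all actives have a fitted effect of over 40% in size; top concentration of the series not given in the record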
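Detergent-free condition (0.00005% Triton X-100) in acetate buffer pH 5.5 with DTT. 1.5 nM enzyme and compound were pre-mixed 15 min, then 2 uM Z-FR-AMC substrate added; reaction progress from fluorescence change between first and third reads (60 s).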
LASV entry inh – Lassa virus entry inhibition; actives 1.2% (n = 300,000); Lassa virus pseudotype entry inhibition, cell reporter; control for the full effect not named in the record; Potency, µM (doses to about 37.9 µM), without a hit: top-dose activity change, negative = inhibition, actives largely listed as inhibitors; AID 540256; active means well fitted inhibition curve with a large enough effect; inconclusive means small, poorly fitted or top-dose-only effect, or effect the other way; inactive means flat fitted curve, though single readings scatter; tested in HEK293 cells; note: % is set by controls: 0 for no effect and ±100 for the full control effect; nearly all actives have a fitted effect of over 50% in size; luciferase read-out
SARS PLpro yeast – SARS-CoV PLP inhibition in yeast; S. cerevisiae expressing SARS-CoV PLpro, growth rescue; control for the full effect not named in the record; Potency, µM (titrated, usually from 32.9 µM), without a hit: top-dose activity, positive = growth rescue; actives 0.19% (n = 330,000); AID 485353; active means well fitted rising curve with a large enough effect; inconclusive means small, poorly fitted or top-dose-only effect; inactive means no such curve, though single readings can be large or run the other way; note: 0% is about no effect; nearly all actives have a fitted effect of over 55% in size; growth read by luminescence after 48 h
RE007 growth inh – less growth of the S. pombe RE007 Vpr strain. S. pombe RE007 Vpr strain, BacTiter-Glo ATP luminescence, 24 h; control for the full effect not named in the record. Potency, µM (highest dose often 92.2 µM), for inactives: at the highest dose activity change, negative = less growth. actives 0.21% (n = 360,000); active = well fitted falling curve with a large enough effect; inconclusive = small, poorly fitted or top-dose-only effect; inactive = no such curve, though single readings can be large or run the other way;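 note: % is set by controls: 0 for no effect and ±100 for the full control effect; nearly all actives have a fitted effect of over 50% in size; the assay follows cell death caused by Vpr and the record does not say whether a fall means rescue or toxicity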
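Fission yeast RE007 carrying one integrated HIV-1 vpr copy, seeded at OD 0.01 in PMG+AL medium with 23 nL pinned compound. Grown 24 h at 30 degrees; viability read by BacTiter-Glo luminescence after 5 min.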
* = called active by the depositor; u = inconclusive; x = no result given; & = joins results of further samples; [ ] = another dose, or the depositor's remark. Unless noted, calls come from the whole dose curve; as a rule, active = well fitted curve in the direction sought with a large enough effect; inconclusive = small, poorly fitted or top-dose-only effect, or another doubt; inactive = no such curve, though single readings can be large; an effect the other way counts as inactive or inconclusive. Potency is the fitted concentration of half-maximal effect.

SMILES	NS1 inh	Cruzain Triton	MARV entry inh	StopGo reporter	Cruzain inh noDet	LASV entry inh	SARS PLpro yeast	RE007 growth inh
Cc1noc(C)c1CSCC(=O)OCC(=O)Nc1sccc1C#N	-11%	-0.6%	6%	17%	-6%	2%	2%	2%
Cc1cc(NC(=O)CCC(=O)N(CC(=O)NCC2CCCO2)c2ccc(C(C)C)cc2)no1 (stereo not given)	-12%	x	8%[46.1 µM]	4%	x	-4%	-2%	-9%
CC1(OC(=O)C2CCCC2)C(=O)C=C2C=C(c3ccsc3)N(c3ccccc3)C=C2C1=O (stereo not given)	u	x	x	-10%	x	x	-2%	-7%
O=C(CS(=O)(=O)c1ccccc1)c1ccc2c(c1)OCCO2	6%	-1.2%	3%	22%	-16%	1%	u	17%
CCc1noc(C)c1C(=O)NCCN1C(=O)S/C(=C\c2ccc(OC)cc2)C1=O	x	x	-4%	20%	x	0%	2%	-23%
Cc1cccc(NS(=O)(=O)c2nnc(NC(=O)c3ccccc3F)s2)c1	12%	x	x	4%	x	x	-1%	-7%
Cc1ccccc1OCC(O)Cn1c(SC(C)C)nc2c1c(=O)[nH]c(=O)n2C (stereo not given)	-6%	-8.2%	-5%&-5%	u	u	u	6%	2%
CCCCC1CC1C(=O)Nc1ncc2c(n1)CC(C)(C)CC2=O (stereo not given)	-5%	1.9%	6%	-1%	-10%	8%	-6%	1%
CN(C)[C@@H]1CCC[C@@H]1OC(=O)C(c1ccccc1)c1ccccc1	-8%	1.2%	15%	-20%	-8%	-6%	21%	0%
Cc1cccc(CCNS(=O)(=O)c2ccc3c(c2)NC(=O)CO3)c1	10%	x	x	36%[activator]	x	x	0%	6%
CCn1cc(C(=O)NCC(=O)OC)c2cc(OC)c(OC)cc2c1=O	0%	4.1%	-1%	3%	-4%	15%	4%	-1%
CCn1cc(CNCc2c(C(=O)N3CCCCC3)nc3c(C)cccn23)cn1	-1%	x	2%[46.1 µM]	-5%	x	-17%	1%	-5%
CCOc1ccc(S(=O)(=O)N2CCN(Cc3nc4ccc(C)cc4o3)CC2)cc1	x	-6.3%	x	u	18%	-17%[46.1 µM]	x	x
COCCOC(=O)c1c(C)oc2ccc(O)c(CN3CCC(C)CC3)c12	-6%	3.2%	u	x	-3%	-18%	3%	1%
O=c1cc(CN2CCCCC2)nc(C2CC2)[nH]1	2%	x	7%[46.1 µM]	-9%	x	u	1%	-9%
O=C(Cc1cccs1)Nc1ccccc1F	-2%	x	u	37%[activator]	x	u	-3%	8%
O=C1c2cccnc2C(=O)N1c1cccc(-c2nc3ccccc3o2)c1	-1%	-4.0%	u	-6%	1%	-1%	-3%	-7%
Cc1ccc(C(=O)CC2(O)C(=O)N(Cc3ccccc3F)c3ccccc32)cc1 (stereo not given)	x	-8.3%	-26%[46.1 µM]	-1%	-1%	-1%[46.1 µM]	x	x
Cc1nc(C)c(-c2ccc(SCc3ccccc3F)nn2)s1	7%	x	x	46%[activator]	x	x	-15%	26%
COc1ccc(CCNC(=O)[C@H](CC(C)C)NC(=O)N2CCn3c2nc2ccccc23)cc1OC	-19%	x	-24%[46.1 µM]	12%	x	u	5%	1%
O=C(CCNC(=O)c1ccc(Br)cc1)NCc1ccccc1F	x	x	-30%[46.1 µM]	-10%	x	-15%	3%	19%
CCN(Cc1ccc(OC)c(F)c1)C(=O)c1oc2ccccc2c1COC	-15%	x	u	-3%	x	-1%[46.1 µM]	-25%	2%
Fc1ccc(C2NCCn3cccc32)cc1 (stereo not given)	10%	-1.3%	-14%	-13%	-1%	-16%	-10%	-3%
C=CCNC(=O)CN1CCC(n2nnc3cc(C(F)(F)F)ccc32)CC1	0%	x	28%[46.1 µM]	-10%	x	-8%	0%	14%
Fc1ccc(-c2ccnn2-c2ccccc2)cc1	9%	x	x	5%	x	x	-1%	4%
O=C(CCc1nc2ccccc2[nH]1)Nc1ccc2c(c1)OCCO2	-26%	2.1%	u	-14%	-4%	14%	-1%	-12%
O=C(Nc1cc(S(=O)(=O)N2CCOCC2)ccc1O)c1ccc2c(c1)S(=O)(=O)c1ccccc1C2=O	x	x	-5%[46.1 µM]	-18%	x	8%	2%	-8%
O=C(Nc1ccc(SC(F)F)cc1)c1ccc2nccnc2c1	-18%	-10%	u	x	u	9%	-14%	0%
CC(=O)OCCCCCCCCCCC[N+]1(C)CCCCC1	0%	x	x	-7%	x	x	0%	28%
CCn1cc(CNC(=O)c2cc([N+](=O)[O-])c(C)c([N+](=O)[O-])c2)cn1	8%	-4.9%	-1%	u	-3%	6%	2%	5%
O=C(CN1C(=O)N/C(=C\c2ccccc2OCc2ccc(C(=O)O)cc2)C1=O)Nc1ccc(F)cc1	3%	x	1%[46.1 µM]	-5%	x	23%[46.1 µM]	2%	5%
NS(=O)(=O)c1cccc(NC(=S)NCc2ccccc2)c1	13%	x	-15%[46.1 µM]	16%	x	-12%[46.1 µM]	2%	-2%
CCOc1ccc(CCNC(=O)CN(C)S(=O)(=O)c2cccc3nsnc23)cc1OCC	-8%	-1.9%	-5%&-5%	-28%	15%	-15%	2%	-19%
Cc1cccc(N(C(=O)c2snc(C(N)=O)c2N)C(C(=O)NCc2ccccc2)c2ccncc2)c1 (stereo not given)	-9%	x	u	21%	x	-11%[46.1 µM]	-3%	9%
Cc1ccc(CNC(=O)C2CCN(S(=O)(=O)c3ccc4nc5c(c(C(=O)O)c4c3)CC(C)CC5)CC2)cc1 (stereo not given)	17%	-5.6%	9%[46.1 µM]	8%&1%	u	x	0%	4%
Cc1cc(C)n2nc(CNS(=O)(=O)c3cccc(Cl)c3)nc2n1	x	-0.9%	11%[46.1 µM]	7%	4%	1%[46.1 µM]	x	x
Cc1nc2c(cc1N)nc(C)n2Cc1ccccc1	0%	x	16%	-27%	x	15%	-4%	2%
COc1ccc(NC(=O)CSc2ccc(-c3ccco3)nn2)cc1OC	-7%	x	-15%	u	x	-5%	6%	-16%
CCC1CCCCN1S(=O)(=O)c1ccc2c(c1)CCN2C(=O)C1CCC1 (stereo not given)	-67%	-2.5%	u	u	2%	u	-5%	3%
Cc1cccc(OCC(O)Cn2c(=N)n(Cc3ccccc3)c3ccccc32)c1 (stereo not given)	2%	x	x	u	x	x	-1%	-1%
O=C(O)c1cccc(S(=O)(=O)N2CCN(S(=O)(=O)c3ccc4ccccc4c3)CC2)c1	x	x	u	3%	x	-5%	2%	-2%
O=C(c1ccco1)N1CCCC(c2nc3c(nnn3Cc3ccc(F)cc3)c(=O)[nH]2)C1 (stereo not given)	-11%	x	-11%[46.1 µM]	-5%	x	0%	1%	-21%
CCOc1ccc(CN(C(=O)/C=C/c2ccco2)C2CCS(=O)(=O)C2)cc1 (stereo not given)	20%	x	x	-14%	x	x	2%	12%
CC(CCc1ccccc1)NC(=O)CNC(=O)c1ccccc1Br (stereo not given)	-3%	x	-2%	17%	x	-1%	-4%	13%
COc1cccc(NC(=O)c2ccc(NC(C)=O)cc2)c1	-1%	-2.4%	12%	29%	-5%	u	-6%	14%
COc1ccc(C2OC(=O)CC2C(=O)NCc2ccc(F)cc2)cc1OC (stereo not given)	x	x	15%[46.1 µM]	-13%	x	4%[46.1 µM]	1%	4%
Cn1c(O)c(N=NC(=O)C2COc3ccccc3O2)c2ccccc21 (stereo not given)	-4%	x	x	-15%	x	x	-1%	-15%
O=C(Nc1nc2ccccc2s1)c1cccc(N2C(=O)CCC2=O)c1	8%	x	-11%	2%	x	8%	1%	-14%
CN(C)C(=O)N1CCN(C(=O)c2ccco2)CC1	u	0.6%	x	2%	5%	x	-2%	-9%
COc1cc(C(=O)OCCn2c(=O)c3c(ncn3CCN(C)C)n(C)c2=O)cc(OC)c1OC	2%	-1.7%	8%	-17%	-2%	11%	-2%	5%

Other entries
SMILES	NS1 inh	Cruzain Triton	MARV entry inh	StopGo reporter	Cruzain inh noDet	LASV entry inh	SARS PLpro yeast	RE007 growth inh
N/C(=N\OC(=O)COc1ccccc1Cl)c1ccccn1	-10%	-2.5%	u	-10%	-2%	7.3µM*	-13%	-10%
Cc1ccc(-n2[nH]c(C)c(C=Nc3cc(C)ccn3)c2=O)cc1	-7%	-6.1%	1%&1%[46.1 µM]	-6%	u	0%	-20%	28µM*
Cc1ccc(NC(=O)C2c3ccccc3Oc3ccccc32)c(C)c1	9%	0.0%	-7%	-21%	u	6%	15%	3%
COc1ccccc1Nc1nn2c(=O)c3ccc(C(=O)N4CCC(C)CC4)cc3nc2s1	u	-14%	x	u	u	-27%[46.1 µM]	-1%	0%
CCn1c(=O)n(CC)c2cc(S(=O)(=O)N3CCCCC3)c(C)cc21	-9%	-1.0%	-19%	u	1%	-14%	-6%	-11%
Cc1cc(C(=O)NC2CC2)c2ccccc2n1	x	x	u	0%	x	-3%	1%	5%
CC(C)C(CCN1C(=O)CCC1=O)C1CCOC(C)(C)C1 (stereo not given)	4%	2.3%	0%	-7%	14%	6%	7%	11%
CCCC(=O)C1CCN(Cc2ccccc2)CC1	-1%	-0.2%	13%	13%	1%	2%	-2%	-4%
CC(=O)NN1C(=O)c2ccccc2NC1c1ccccc1O (stereo not given)	4%	x	7%[46.1 µM]	-14%	x	-4%[46.1 µM]	2%	1%
CC(C)c1ccc(NC(=O)c2cn(C3CCCCC3)c(=O)c3c2c2ccccc2n3C)cc1	x	0.3%	-10%[46.1 µM]	-1%	u	14%[46.1 µM]	x	x
Cc1ccc(Nc2ncnc3c2nnn3Cc2ccccc2)cc1	-3%	x	u	21%	x	-18%	-3%	23%
O=C(CCNC(=O)c1ccccc1Cl)Nc1cc(S(=O)(=O)N2CCOCC2)ccc1N1CCOCC1	-7%	x	x	-7%	x	x	2%	1%
NC(=O)c1ccccc1NS(=O)(=O)Cc1ccc(Cl)cc1	2%	-1.0%	u	14%	-7%	u	-4%	0%
CCc1c(C)nc2ncnn2c1Nc1ccc(C(C)=O)cc1	10%	-5.5%	u	71%[activator]	-3%	u	-5%	8%
